High-throughput results from PubChem.
FGF22 binding – binders of recombinant human FGF22 by thermal shift; Q9HCT0; SYPRO orange fluorescence; percent of sucrose octasulfate shift, DMSO zero; calls only at 9.99 µM; 340,000 tested, 1.5% active; AID 651658;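 active = melting point raised past a set limit in the mean and every replicate; inconclusive = no clear call; three in four hits are not shown here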
Target sequence (Q9HCT0 whole entry, looked up): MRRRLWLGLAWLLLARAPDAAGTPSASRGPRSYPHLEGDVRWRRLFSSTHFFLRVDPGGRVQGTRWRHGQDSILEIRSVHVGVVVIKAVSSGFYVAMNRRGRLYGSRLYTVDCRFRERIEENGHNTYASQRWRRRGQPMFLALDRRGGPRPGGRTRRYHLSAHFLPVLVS
Vif A3G – HIV-1 Vif–A3G interaction blockers – biochemical, TR-FRET, GST-Vif 1-94, biotin-A3G peptide, dose response retest, primary screen (AID 1117319) | TR-FRET GST-Vif / biotin-A3G peptide binding; higher % means a stronger effect; test concentration not given here; strong numbers were not always called active | inhibition, %; hits with a dose series show IC50 in µM | 260,000 tested, 0.57% active;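 active = above the screen mean plus three standard deviations and confirmed in dose response; inconclusive = results disagree or hit not tested in dose response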;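 note: Vif residues 1-94 fused to GST binding biotinylated APOBEC3G peptide 110-148; 0% = full assay without inhibitor and 100% = GST in place of GST-Vif; retest series ran down from 100 µM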
UCH37 DUB inh – blocks the human deubiquitinase UCH37; Q9Y5K5; AID 588478; inhibition, % (concentration not given with the values); 330,000 tested, 0.33% active; purified proteasome/UCH37, Ub-AMC cleavage fluorescence;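 active = mean of two replicates above 20%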;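 note: 0% = compound-free wells with enzyme and 100% = wells lacking proteasome; stock transfer was 100 nL into about 20 µL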
Target sequence (Q9Y5K5 whole entry, looked up): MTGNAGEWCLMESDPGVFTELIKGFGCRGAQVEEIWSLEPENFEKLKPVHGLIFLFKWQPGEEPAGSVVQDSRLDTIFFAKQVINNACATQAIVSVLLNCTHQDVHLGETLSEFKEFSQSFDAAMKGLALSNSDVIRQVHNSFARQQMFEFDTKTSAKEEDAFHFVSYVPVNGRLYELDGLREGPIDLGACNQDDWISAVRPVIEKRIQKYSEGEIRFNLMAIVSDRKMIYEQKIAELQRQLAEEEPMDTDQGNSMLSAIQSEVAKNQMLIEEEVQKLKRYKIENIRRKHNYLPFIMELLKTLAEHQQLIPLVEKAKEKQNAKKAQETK
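system = Proteasome-associated human UCH37 deubiquitinase | amount = 0.15 nM proteasome as dispensed | medium = pH 7.4 Tris-HCl (50 mM) with ovalbumin, ATP-MgCl2, DTT | incubation = 30 min preincubation with enzyme, 25 min cleavage at room temperature | detection = AMC fluorescence 355/460 nm | read-out basis = percent inhibition | controls = no-proteasome and no-compound wells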
HNF4A DNA FP – change in binding of human HNF4 alpha to DNA | activity change, % at 10 µM | HNF4a-FITC DNA binding, fluorescence polarization, 1 h | 360,000 tested, 0.3% active | AID 1224865; in the data active = activity change above about 30%, passing the limit was not always enough;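 note: controls were the assay level and a saturating level of protein; the project sought stronger binding though the title names inhibitors; some compounds called inactive have numbers as strong as hits; positive values seem to mean higher polarization but the record does not say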
Target sequence (P41235 whole entry, looked up): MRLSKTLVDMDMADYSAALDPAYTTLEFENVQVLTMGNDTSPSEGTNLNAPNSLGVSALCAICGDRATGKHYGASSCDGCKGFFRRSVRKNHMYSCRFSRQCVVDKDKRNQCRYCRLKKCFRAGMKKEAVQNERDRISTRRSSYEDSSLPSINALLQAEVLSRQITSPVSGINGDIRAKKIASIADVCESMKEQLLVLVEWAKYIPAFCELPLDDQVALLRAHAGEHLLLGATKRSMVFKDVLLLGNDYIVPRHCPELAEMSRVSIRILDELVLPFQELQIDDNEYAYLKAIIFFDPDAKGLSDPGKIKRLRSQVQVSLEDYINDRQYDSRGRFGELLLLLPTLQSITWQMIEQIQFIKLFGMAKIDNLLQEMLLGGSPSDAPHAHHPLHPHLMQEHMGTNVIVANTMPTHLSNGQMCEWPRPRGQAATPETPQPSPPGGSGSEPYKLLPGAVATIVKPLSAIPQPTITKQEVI
Ecoli growth – E. coli growth inhibition | 330,000 tested, 0.21% active | Escherichia coli growth, OD600, 23 h; stronger effect = lower value | OD600 absorbance (test concentration not listed);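 active = OD600 absorbance below the run mean of sample wells minus 3.6 SD, in any replicate, cut at about 0.56 in these data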;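 note: stock transfer was 300 nL into about 60 µL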
RanGTP-Impb inh – disruptors of Ran-importin-beta complex formation – biochemical, FRET, CFP-Ran, YFP-importin-beta, homogeneous, primary screen | cell-free CFP-Ran/YFP-importin-beta FRET ratio | inhibition, % (test concentration not listed) | 300,000 tested, 1.1% active;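 active = most replicates above 15%; inconclusive = exactly half above 15%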;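 note: 0% = DMSO wells and 100% = Ran loaded with GDP instead of GTP; wells of about 40 µL received 100 nL stock; the first replicate is given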
AF4-AF9 inh – MLL-AF4/AF9 protein interaction inhibition; P42568; AlphaScreen, biotin-AF4 peptide binding to FLAG-AF9; inhibition, % at 10 µM; 350,000 tested, 0.47% active; AID 651704;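 active = every replicate reaching a set inhibition limit, whatever the replicate mean, cut at about 25% in these data; inconclusive = mean inhibition reaches that limit but some replicates miss it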;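 note: 0% = plate neutral control median and 100% = total signal loss; the record names both 10 and 1 µM as test concentration; the first replicate is given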
An asterisk follows results filed as active; i = inactive; ? = inconclusive; . = no result given; & = joins results of further samples.

SMILES	FGF22 binding	Vif A3G	UCH37 DUB inh	HNF4A DNA FP	Ecoli growth	RanGTP-Impb inh	AF4-AF9 inh
CC(C)OCCCNc1ncc2c(n1)CC(c1ccccc1)CC2=O (centres undefined)	i	?	1.2	0.0	0.683	8.1	3.8
O=C1CCC(=O)N1CCSC(=S)N1CCOCC1	i	-2.3%	5.9	1.1	0.702	0.3	7.4
Cc1cc(C(=O)N2CCc3ccccc3C2)n[nH]1	i	.	.	0.5	.	0.3	2.6
Cc1ccc(Cn2ccc(NC(=O)c3c(-c4ccccc4Cl)noc3C)n2)cc1	.	-2.5%	6.4	-5.5	0.739	1.1	.
N#Cc1cc(C#N)c(SCC(=O)N2CC(=O)Nc3ccccc32)nc1N	i	-36.2%	-5.3	11.0	0.698	.	-1.3
CNc1cncc(-c2ccc(CN3CCOCC3)cc2)n1	i	.	.	0.6	.	.	0.1
Cc1ccc2nc(=O)c(NNc3ccccc3)cnc2c1	i	.	10.7	-4.6	0.64	.	2.4
Cc1ccc(-n2nnnc2CNC(=O)c2ccc3c(c2)OCO3)cc1C	i	.	4.0	2.1	0.71	-0.7	-6.3
CCC(CC)C(=O)Nc1cc(C)c2c(=O)oc3ccccc3c2n1	i	-13.4%	-6.3	-0.6	0.713	8.8	-1.5
N#CCSc1nnc(SCC#N)s1	i	10.7%	4.9	-0.7	0.692	1.3	-4.7
O=C(COC(=O)c1ccc2c(c1)C(=O)N(CCc1ccccc1)C2=O)Nc1ccc(OC(F)F)cc1	.	-2.2%	-1.4	-0.6	0.703	-6.4	.
Cc1ccc(CNC(=O)Cn2cccc2C(=O)c2ccccc2C)cc1	.	13.9%	3.1	2.7	0.697	6.2	-0.7
CCOC(=O)[C@@H]1[C@H]2COc3ccccc3[C@@H]2N2C(=O)N(c3ccc(C(F)(F)F)cc3)C(=O)[C@]12C	i	.	4.1	-1.3	.	1.0	-19.5
COc1ccc(C(=O)Oc2ccc(C(C)=O)cc2)c(OC)c1	.	-1.1%	-2.0	-0.8	0.739	-1.0	.
C[C@@H](C(=O)NCc1ccccn1)[C@@H]1C[C@@]1(C)[C@@H](NC(=O)OCc1ccccc1)c1ccccc1	i	1.6%	-1.8	-1.4	.	-3.5	1.5
NC(=O)c1cc(NC(=O)CCc2nc3ccccc3s2)cc(C(N)=O)c1	i	-11.0%	5.1	1.6	0.646	1.3	0.1
COc1cccc(C(=O)NNS(=O)(=O)c2ccccc2)c1	i	2.7%	.	1.5	.	.	-4.2
COc1ccc(OC)c(CN2CCN(CCc3ccccc3)C(CCO)C2)c1 (centres undefined)	i	5.2%	0.0	-0.9	0.71	3.4	4.9
CCOc1ccccc1NC(=O)c1ccc(S(=O)(=O)N2CCCCC2)cc1	i	.	.	2.2	.	7.5	-3.4
COc1ccc(S(=O)(=O)N2CCCCC2)cc1NC(=O)c1cc([N+](=O)[O-])ccc1N1CCOCC1	i	4.2%	3.1	1.2	0.692	8.1	7.6
CN(CC(=O)Nc1cccc(F)c1)C(=O)c1cc(-c2ccccc2)nc2ccccc12	.	-4.4%	3.6	-2.1	0.65	-0.3	-1.7
CC(=O)N1CC(C)Sc2ccc(S(=O)(=O)NCCc3cccc(C)c3)cc21 (centres undefined)	i	0.9%	3.9	-1.1	0.693	0.7	-0.5
CCOC(=O)C1=C(C)Nc2[nH]c(=O)[nH]c(=O)c2C1c1cccs1 (centres undefined)	i	-1.5%	6.6	-1.0	0.718	2.0	-5.5
C/C(=N\Nc1nccnc1Cl)c1ccc([N+](=O)[O-])cc1	.	2.3%	.	3.5	.	-1.9	.
CCCn1nc(C(=O)Nc2nc(-c3ccccn3)cs2)c2ccccc2c1=O	i	7.2%	0.3	2.0	0.674	.	1.2
COc1ccc(C(=O)NCc2ccc(-c3nc4ccccc4s3)cc2)cc1	.	-4.3%	-5.8	2.8	0.632	4.9	.
CC(=O)NCCNc1nc2cc(-c3cnn(CCC(C)C)c3)sc2c(=O)n1C	i	.	.	0.6	.	.	-0.6
COc1ccccc1CCNC(=O)C(=O)NCC1OCCN1S(=O)(=O)c1ccc(Br)cc1 (centres undefined)	.	-8.9%	-0.3	-2.3	0.703	0.7	.
COCCN1Cc2cccc(C(=O)Nc3ccc(-c4nc5ccccc5[nH]4)cc3)c2C1=O	.	5.1%	.	-1.6	.	?	.
COc1ccc(Cl)cc1N1C(=O)C2CCCN2C1c1ccc(F)c(F)c1 (centres undefined)	.	2.8%	0.5	-1.2	0.713	-2.7	0.3

Look-ups from the entries so far:
HNF4A DNA FP, COc1ccccc1CCNC(=O)C(=O)NCC1OCCN1S(=O)(=O)c1ccc(Br)cc1 (centres undefined) stands at -2.3
HNF4A DNA FP, CCCn1nc(C(=O)Nc2nc(-c3ccccn3)cs2)c2ccccc2c1=O stands at 2.0

Continued:
SMILES	FGF22 binding	Vif A3G	UCH37 DUB inh	HNF4A DNA FP	Ecoli growth	RanGTP-Impb inh	AF4-AF9 inh
COc1ccc(CCN(C)C(=O)CN2C(=O)c3ccccc3S2(=O)=O)cc1OC	.	-4.8%	2.1	-0.3	0.726	-1.2	.
COc1ccc(NC(=O)Nc2ncn(Cc3cccc(C(F)(F)F)c3)n2)cc1OC	.	-1.4%	6.1	-5.1	0.718	2.7	.
COc1ccc(C2(CNC(=O)c3cccc([N+](=O)[O-])c3)CCCCC2)cc1OC	i	.	0.8	-0.2	0.713	4.6	0.9
Cc1ccc(OCC(=O)N/N=C\c2ccc(C)o2)c(C)c1	i	-18.7%	.	1.7	.	?	-4.8
Cc1cccc(/C(N)=N/OC(=O)c2ccc(Br)o2)c1	.	.	-1.0	2.8	0.723	-3.8	.
CCc1nc2ccc(C(=O)NCCNC(C)=O)cn2c1N(CC)Cc1cccc(Br)c1	i	.	.	-1.4	.	.	2.9
COc1ccc(C2SCC(=O)N2c2ccc(F)cc2)cc1 (centres undefined)	i	-1.8%	3.0	-1.4	0.683	-1.0	-2.7
O=C1CCCC2=C1C(c1ccc(Cl)cc1)N1C(=O)CCSC1=N2 (centres undefined)	.	-0.1%	3.3	-5.0	0.7	4.4	.
O=C(Nc1ccc(N2CCOCC2)c(F)c1)c1ccncc1	.	-0.3%	1.8	1.1	0.705	0.4	.
CN(Cc1ccc(C(C)(C)C)cc1)C(=O)C1CSC2(C)CCC(=O)N12 (centres undefined)	i	0.6%	3.7	-0.9	0.684	.	0.3
CCC1(CC)C(=O)N(C)C(=O)NC1=Nc1ccc(OC)cc1	.	30.9%	0.8	-1.7	0.768	-0.9	.
C=CCc1cccc2cc(C(=O)NC)c(=O)oc12	.	5.7%	-16.2	2.4	0.695	1.2	.
COc1ccc(OC)c(C(=O)Cn2nnc(-c3ccc(N4CCOCC4)cc3)n2)c1	i	4.7%	-28.2	2.0	0.746	-3.3	-3.6
C=CCn1c(SCC(=O)N2N=C(c3ccco3)CC2c2ccco2)nnc1-c1ccncc1 (centres undefined)	.	8.2%	3.0	-1.3	0.684	2.3	.
CCOC(=O)[C@]12CCCC=C1N(Cc1ccc3c(c1)OCO3)C(=O)[C@H](CC(=O)NCc1ccc(OC)c(OC)c1)C2	i	.	.	1.2	.	.	5.1
O=C(NC(=O)c1ccc(Cl)cc1)Nc1ccc(-c2cnco2)cc1	.	-2.7%	3.4	.	0.684	-1.2	.
CCn1cc(/C=C(\NC(=O)c2cc(OC)c(OC)c(OC)c2)C(=O)N2CCN(C)CC2)c2ccccc21	i	.	9.9	5.3	0.705	2.8	-5.4
Fc1ccc(OCCOCCOc2cccc3[nH]ccc23)cc1	i	-8.7%	3.5	-0.7	0.669	?	-0.2
CC1Sc2ccc(S(=O)(=O)CCC(=O)NC3CCCCC3C)cc2NC1=O (centres undefined)	i	7.3%	-1.8	-2.3	0.647	1.9	-0.9
O=C(NN=Cc1ccc(N2CCOCC2)cc1)c1cc2ccccc2cc1O	i	.	-9.2	-0.7	0.641	.	1.8
O=C(CSc1nc2ccc([N+](=O)[O-])cc2[nH]1)NC1CCCCC1	i	19.5%	4.0	4.1	0.718	1.0	6.1
CN(C)c1ccc(NC(N)=S)cc1	i	.	0.2	2.7	0.719	-2.1	8.9
COC(=O)[C@@H]1C[C@@H]2CC[C@@H](O)C[C@@H]2N1Cc1ccc(Cl)cc1	i	20.0%	1.4	16.7	.	-2.9	2.8
Cc1ccc(NC(=O)c2c(C)nn(-c3ccccc3)c2Cl)c(C)c1	.	-1.0%	0.6	3.6	0.745	-0.3	.
Cc1ccc2oc(=O)c3cnn(CC(=O)NC4CCCCC4C)c3c2c1 (centres undefined)	i	66.0%	4.0	-1.8	0.721	3.8	4.1
CCC(=O)N1CCN(C(C)=O)C1c1ccccc1 (centres undefined)	.	-2.0%	4.2	5.5	0.713	2.1	.
COc1cc(-c2nnc(COc3ccc4cc(Br)ccc4c3)o2)cc(OC)c1OC	.	-21.4%&-38.4%	1.9	-0.2	0.725	?	.
CCC(c1nnnn1CC1CCCO1)N(CCN1CCOCC1)Cc1cc2cc(C)ccc2[nH]c1=O (centres undefined)	.	17.2%	1.4	-1.9	0.728	.	.
CSCCC(NC(=O)c1ccccc1Cl)C(=O)OCC(=O)N1CCCC1=O (centres undefined)	i	-2.4%	4.5	0.5	0.658	0.0	-6.5
CNC(=O)/C(C#N)=C/c1c(N2CC(C)OC(C)C2)nc2ccccn2c1=O (centres undefined)	i	2.0%	-136.0	-2.6	0.691	?	-10.3
CCC(=NCc1ccccc1)C1=C(O)C(C(=O)OC)C(C)(C)CC1=O (centres undefined)	.	5.8%	3.0	1.3	0.684	1.0	.
CC(Oc1cccc(Cl)c1)C(=O)Nc1ccc(S(=O)(=O)Nc2ncccn2)cc1 (centres undefined)	i	-1.8%	5.6	4.2	0.695	-3.2	4.6
Cc1nc(NCc2ccc3c(c2)OCO3)c2oc3ccccc3c2n1	.	10.5%	0.8	1.8	0.677	-0.9	.
O=C(N/N=C/c1ccccc1)c1ccc(CN2C(=O)c3cccc4cccc2c34)cc1	i	.	.	-7.3	.	-2.5	-1.5
COc1cc(C(=O)c2c(C)c(CCC#N)n3ccccc23)cc(OC)c1OC	i	11.5%	-0.7	-2.7	0.686	-0.8	-1.5
O=S(=O)(c1cccc(S(=O)(=O)N2CCCC2)c1)N1CCCCC1	i	-9.4%	2.1	0.0	0.713	-0.6	-0.2
O=C(C1CCCN(S(=O)(=O)c2ccccc2[N+](=O)[O-])C1)N1CCN(c2ccccc2)CC1 (centres undefined)	.	16.6%	-0.6	-1.7	0.662	-0.7	.
Cc1ccc(S(=O)(=O)NCCN(CCNS(=O)(=O)c2ccc(C)cc2)S(C)(=O)=O)cc1	.	-1.2%	-1.4	2.6	0.707	20.8*	.
CCOc1ccc(CN(C)C(C)C(=O)NCc2ccccc2)cc1 (centres undefined)	i	.	1.2	0.3	0.659	7.3	0.9
O=C(CN1CCOCC1)Nc1cccc(S(=O)(=O)N2CCCCCC2)c1	i	?	-0.8	1.5	0.678	3.4	1.3
O=C(O)c1cccc(Sc2cc(Cl)ccc2C(=O)O)c1	i	.	0.8	-0.7	0.615	.	-1.0
COC(=O)c1nccc2c1[nH]c1ccccc12	i	.	-13.7	-0.1	0.641	5.2	-2.6
COc1ccccc1NC(=O)C(C/C=C(/C)Cl)C(C)=O (centres undefined)	.	.	3.1	0.9	0.732	-0.9	.
CCOC(=O)C1CCN(C(=O)CCc2nc3ccccc3[nH]2)CC1	.	0.3%	0.6	-3.1	0.691	6.4	.

Molecules shown so far containing a thiophene ring, fused or not (two):
SMILES	FGF22 binding	Vif A3G	UCH37 DUB inh	HNF4A DNA FP	Ecoli growth	RanGTP-Impb inh	AF4-AF9 inh
CCOC(=O)C1=C(C)Nc2[nH]c(=O)[nH]c(=O)c2C1c1cccs1 (centres undefined)	i	-1.5%	6.6	-1.0	0.718	2.0	-5.5
CC(=O)NCCNc1nc2cc(-c3cnn(CCC(C)C)c3)sc2c(=O)n1C	i	.	.	0.6	.	.	-0.6

The list is partial. The share of hits here may be higher or lower than overall.
